Screening results deposited in PubChem BioAssay by National Center for Advancing Translational Sciences (NCATS).
TRPML1 blocker = blocks the human TRPML1 channel; actives 0.02% (n = 390,000); Q9GZU1; activity change, negative = inhibition, % (test concentration not listed); TRPML1-inducible cells, Ca2+ dye fluorescence, FDSS; hits give low values; inhibition of EC80 agonist-evoked calcium signal; AID 624415; in the data active means activity change below about -50%; inconclusive means about -30% to -50%; inactive means above about -30%;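 note: stimulus is agonist 54-4 at its EC80 concentration; % is set by controls: 0 for no effect and ±100 for the full control effect; compound concentration not given in the record; the text of the record puts the active cut at -80%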
Target sequence (Q9GZU1 whole entry, looked up): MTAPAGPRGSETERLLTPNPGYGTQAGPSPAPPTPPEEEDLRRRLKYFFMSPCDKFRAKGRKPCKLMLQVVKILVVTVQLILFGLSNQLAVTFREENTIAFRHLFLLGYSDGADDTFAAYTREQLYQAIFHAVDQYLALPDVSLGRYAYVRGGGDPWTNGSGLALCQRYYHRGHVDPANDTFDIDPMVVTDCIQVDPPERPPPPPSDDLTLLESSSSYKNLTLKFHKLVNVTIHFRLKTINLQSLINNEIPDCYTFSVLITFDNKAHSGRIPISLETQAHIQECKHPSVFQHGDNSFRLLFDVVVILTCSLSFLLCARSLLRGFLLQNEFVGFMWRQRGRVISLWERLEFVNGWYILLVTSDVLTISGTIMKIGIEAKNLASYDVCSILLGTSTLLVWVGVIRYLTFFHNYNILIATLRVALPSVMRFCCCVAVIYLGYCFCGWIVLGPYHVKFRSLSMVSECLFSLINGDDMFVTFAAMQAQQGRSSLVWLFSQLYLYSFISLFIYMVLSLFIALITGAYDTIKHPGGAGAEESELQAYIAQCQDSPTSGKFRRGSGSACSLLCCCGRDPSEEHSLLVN
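Calcium fluorescence in TRPML1-DL cells induced overnight with Tet: a 110 s read after compound pin addition, then a 110 s antagonist read after challenge with 54-4 at 4 uM final (EC80).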
Six1-Eya2 inh = inhibitors of human Six1/Eya2 interaction; Q15475+O00167; AlphaScreen GST-Six1/His-Eya2 binding, biochemical; hits give low values; control for the full effect not named in the record; activity change, % (no concentration beside the values); actives 0.56% (n = 360,000); AID 651725; in the data active = activity change below about -65%; inconclusive = about -30% to -65%; inactive = above about -30%; note: % is set by controls: 0 for no effect and ±100 for the full control effect; compound concentration not given in the record
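Six1/Eya2 binding was read as AlphaScreen signal after compounds were pinned into GST-Six1 plus His-tagged Eya2 (5X stock 250/500 nM) in pH 8.0 Tris/NaCl/TCEP buffer, beads added, then incubated 1 h, 37 C, dark.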
TRPML1 ag = agonists of human TRPML1 channel | Q9GZU1 | TRPML1-expressing cells, Ca2+ dye fluorescence, FDSS; host cell line not named in the record; reference of the full effect not given here | activation, % (concentration not given with the values) | actives 0.12% (n = 410,000); in the data active = activation above about 50%; inconclusive = about 30% to 50%; inactive = below about 30%; note: 0% is about no effect; the text of the record puts the active cut at 80%
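Tet-induced TRPML1-DL cells, 1,500 per well, cultured overnight, were loaded with a no-wash Ca2+ dye for 45–90 min. Calcium fluorescence was recorded on the FDSS for 110 s after compound addition, before the EC80 agonist (4 uM 54-4) was added.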
PINK1 modulator = modulators of PINK1 expression | PINK1 immunofluorescence, high-content cytometry, 24 h | Potency, µM (top dose mostly 76.6 µM), for inactives: at the highest dose activation (PINK1 increase), most hits filed as activators | actives 0.2% (n = 410,000) | AID 624263; active = well fitted activation curve with a large enough effect; inconclusive = small, poorly fitted or top-dose-only effect; inactive = flat fitted curve, though single readings scatter; cell line not stated here;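 note: potency is the fitted concentration of half-maximal effect; % of control where 0% means no effect; nearly all actives have a fitted effect of over 65% in size; a mitochondrial uncoupler was the plate control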
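Stable cell line treated 24 h with compounds at 5 concentrations (CCCP controls), then fixed and immunostained for PINK1 plus nuclear and cell stains; PINK1 immunofluorescence quantified by laser-scanning microplate cytometry.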
D2 ag = human D2 receptor agonism in beta-arrestin assay. P14416. DiscoveRx PathHunter D2 beta-arrestin, luminescence, 90 min; 100% = 57 uM dopamine signal. activation, % (concentration not given with the values). actives 0.084% (n = 360,000). AID 624465; in the data active = activation above about 40%; inconclusive = about 15% to 40%; inactive = below about 15%; note: compound concentration not given in the record; the text of the record calls up to 30% inactive
Target sequence (P14416 whole entry, looked up): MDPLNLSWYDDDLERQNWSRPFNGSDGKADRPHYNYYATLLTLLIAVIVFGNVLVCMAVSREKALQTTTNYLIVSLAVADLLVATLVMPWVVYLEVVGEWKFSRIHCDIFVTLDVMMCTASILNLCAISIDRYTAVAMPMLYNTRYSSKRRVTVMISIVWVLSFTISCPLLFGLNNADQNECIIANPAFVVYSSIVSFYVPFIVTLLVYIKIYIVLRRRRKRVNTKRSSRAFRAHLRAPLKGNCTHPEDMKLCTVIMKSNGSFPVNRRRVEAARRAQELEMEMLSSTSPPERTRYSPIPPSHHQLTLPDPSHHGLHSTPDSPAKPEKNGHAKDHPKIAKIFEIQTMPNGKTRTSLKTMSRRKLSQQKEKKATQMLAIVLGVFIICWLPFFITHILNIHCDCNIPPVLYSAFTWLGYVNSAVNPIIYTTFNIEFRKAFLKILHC
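Agonist mode: compounds alone added to overnight-plated D2 PathHunter cells for 90 min at 37 C, with 57 uM final dopamine (EC100) defining full response. Beta-arrestin recruitment detected by chemiluminescent reagent, read after 1 h at ambient temperature.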
CtBP-E1A inh = inhibitors of CtBP/E1A interaction | actives 0.49% (n = 340,000) | activity change, % (no concentration beside the values) | AlphaScreen GST-E1A/His-CtBP binding, 1536-well; hits give low values; control for the full effect not named in the record; in the data active means activity change below about -65%; inconclusive means about -30% to -65%; inactive means above about -30%; note: % is set by controls: 0 for no effect and ±100 for the full control effect; compound concentration not given in the record
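GST-E1A and His-tagged CtBP (125 nM each as 5X stock) were preincubated with pin-transferred compound for 2 h at 37 °C in the dark, then glutathione donor and nickel acceptor beads were added for 1 h before AlphaScreen reading.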
Active calls of the source: *; ? = inconclusive; . = no result given; & = joins results of further samples; [ ] = remark or other dose.

SMILES	TRPML1 blocker	Six1-Eya2 inh	TRPML1 ag	PINK1 modulator	D2 ag	CtBP-E1A inh
C[C@H](CO)N1C[C@H](C)[C@@H](CN(C)Cc2ccncc2)Oc2c(NS(=O)(=O)c3cccs3)cccc2C1=O	2	1	-0.7	-0.4%	-2.6	4
CCc1ccccc1Nc1nc(-c2cccnc2)cs1	-2	10	1.7	-1.0%	0.7	.
O=C(Nc1ccc(O)cc1C(=O)O)c1ccc2c(c1)C(=O)N(Cc1ccco1)C2=O	-6	-19	2.0	1.2%[38.3 µM]	-0.6	2
COc1ccc(Cl)cc1NC(=O)c1c(NCc2cccnc2)sc2c1CCCC2	9	.	0.7	1.8%	.	.
COc1ccc(-c2c(C)oc3c(CN4CCCCC4C)c(O)ccc3c2=O)cc1 (stereo unspecified)	9	9	-0.7	0.2%	-2.2	-9
COc1ccc(/C=N/Nc2nc(N3CCCC3)nc(N3CCCC3)n2)c(OC)c1OC	-13	-2	-0.6	6.5%	0.9	-8
CCCCc1nnc(NC(=O)C(=O)OCC)s1	-13	6	0.1	0.8%	2.0	-3
Cc1ccc(C)c(OCCCCn2cnc3ccccc3c2=O)c1	-11	7	1.3	6.3%[38.3 µM]	0.4	11
Clc1cccc(Cl)c1-c1nnc2cccc(Cl)n12	0	5	1.2	-0.5%	-5.2	2
O=C(N/N=C/c1ccc([N+](=O)[O-])cc1)c1ccc(COc2ccccc2-c2ccccc2)cc1	-5	8	0.7	-1.2%	3.5	4
Cc1ccc(NC(=O)c2c(C(=O)Nc3ccccc3)sc3nc(C)cc(=O)n23)c(C)c1	-7	.	0.1	6.8%	.	.
N#Cc1c2n(c3c(=O)n(Cc4ccc(Cl)cc4)cnc13)CCCCC2	-15	0	1.0	-1.2%	2.8	-11
COCCn1c(SCC(=O)N2CCCC(C)C2)nnc1-c1ccco1 (stereo unspecified)	4	8	0.7	-0.9%	-2.0	10
COc1ccc(-n2cc(CNC(C)c3ccncn3)c(-c3cccc(F)c3)n2)cc1 (stereo unspecified)	9	3	-0.2	1.0%	-1.1	-1
CC(=O)N1CCc2cc(S(=O)(=O)NCCC(=O)NCCc3ccc(C)cc3)ccc21	14	0	-1.0	-1.8%	0.7	-1
COc1ccc(CNC(=O)c2cc(=O)c3ccc(C)c(C)c3o2)cc1	-11	-12	1.8	-1.2%	-1.4	-6
COc1cc2c(N3CCOCC3)cc(O)c(CC(=O)Nc3ccccc3)c2cc1OC	-4	0	0.5	4.4%	-2.1	0
O=C(NC1CCCCC1)c1ccc2c(c1)N(Cc1ccc(F)cc1)C(=O)c1ccccc1S2(=O)=O	59	.	4.6	-0.4%	.	.
O=C(COc1ccc(Br)cc1Cl)NC1CCN(Cc2ccccc2)CC1	-5	-7	-0.3	-1.2%	-3.3	-7
NC(=O)c1sc2nc(-c3ccccc3)ccc2c1N	-8	-10	-1.1	-0.9%	7.8	.
CCOc1cc(/C=N/n2cnnc2)ccc1OS(=O)(=O)c1ccccc1	-13	-6	1.4	0.9%	3.3	-7
c1ccc(Oc2ccc(-n3cnnn3)cc2)cc1	0	1	-0.4	3.0%[38.3 µM]	-1.6	10
Cc1ccc2c3c([nH]c2c1)C(=O)CC(C)(C)S3	-3	12	0.4	4.7%	-2.9	5
Cc1nn(CCC(=O)NCc2ccc(N(C)C)cc2)c(=O)c2nn(-c3ccccc3)c(C)c12	38&-10	-3	1.3&4.9	2.1%&2.8%	5.2	3
COc1ccc(C2CC(=O)Oc3c(C(CCN4CCN(c5ccccc5)CC4)c4ccc(N(C)C)cc4)c(OC)cc(OC)c32)cc1 (stereo unspecified)	-5&-28	?	0.7&3.2	1.6%	2.2	?
O=C(Nc1ccccc1)C1CCN(C(=O)c2ccc([N+](=O)[O-])cc2)CC1	3	13	-0.3	2.5%	-3.3	4
CC(C)c1nc2n[nH]c(N)c2c2c1CCC2	1	0	-0.5	-1.2%	-2.3	0
COC(=O)/C(=C\c1ccc2c(c1)c1ccccc1n2C)NC(=O)c1ccccc1	-3	-2	-0.1	1.7%	0.6	3
Clc1ccccc1/C=C/C=N/Nc1nc(N2CCOCC2)nc(N2CCOCC2)n1	-7	22	0.0	1.5%	-6.1	-7
COc1cccc(/C=N/n2c(COc3ccccc3)n[nH]c2=S)c1OC	-4	-9	0.9	0.0%	5.9	.
CCOc1ccccc1N(C)C(=O)c1cc(S(=O)(=O)NCc2ccc(C)cc2)ccc1F	-17	.	2.5	13%	.	.
COc1cccc(-c2nc(-c3ccc(NC(=O)c4cccs4)cc3)no2)c1	6	-2	2.9	7.2%	3.3	0
COc1ccc(-c2cc(C(=O)Nc3cccc(O)c3)on2)cc1OC	7	.	-0.9	1.4%	.	.
CCN(CC)S(=O)(=O)c1ccc(N2CC(C(=O)NCc3ccc4c(c3)OCO4)CC2=O)cc1 (stereo unspecified)	-4	-6	0.3	0.3%	-5.1	.
CCOc1ccccc1N(CC(=O)Nc1ccccc1C(=O)O)S(C)(=O)=O	33	-5	0.2	4.8%	-2.9	4
CC(C)n1c(O)c(N=Nc2ccc(Cl)c(C(=O)O)c2)c2ccccc21	10	-11	-0.3	0.0%	-3.6	2
Cc1cccc(NC(=O)C2(c3ccc([N+](=O)[O-])cc3)CCCC2)c1	-3	-6	1.7	-0.6%	-1.7	-5
O=C(COC(=O)c1ccccc1Cl)NCCC1=CCCCC1	23	7	1.8	0.6%	-4.6	.
CCc1noc(C)c1C(=O)N1CCN(S(=O)(=O)c2ccc(C(C)=O)cc2)CC1	15	9	-0.3	0.3%	-2.0	3
Cc1ccc(C(=O)NCc2ccc3c(c2)OCO3)cc1S(=O)(=O)N1CCCCC1	16	0	1.1	-1.6%	-4.4	5

Rewritten with two lines to a compound: entries from further up.
Results follow in this order: TRPML1 blocker	Six1-Eya2 inh	TRPML1 ag	PINK1 modulator	D2 ag	CtBP-E1A inh
- COc1ccc(C2CC(=O)Oc3c(C(CCN4CCN(c5ccccc5)CC4)c4ccc(N(C)C)cc4)c(OC)cc(OC)c32)cc1 (stereo unspecified)
    -5&-28	?	0.7&3.2	1.6%	2.2	?
- COc1ccc(-c2cc(C(=O)Nc3cccc(O)c3)on2)cc1OC
    7	.	-0.9	1.4%	.	.
- O=C(COC(=O)c1ccccc1Cl)NCCC1=CCCCC1
    23	7	1.8	0.6%	-4.6	.
- COC(=O)/C(=C\c1ccc2c(c1)c1ccccc1n2C)NC(=O)c1ccccc1
    -3	-2	-0.1	1.7%	0.6	3

Next results
SMILES	TRPML1 blocker	Six1-Eya2 inh	TRPML1 ag	PINK1 modulator	D2 ag	CtBP-E1A inh
Cn1c(=O)c2c(nc(CN3CCc4ccccc4C3)n2Cc2ccc(F)cc2)n(C)c1=O	8	-9	1.1	0.5%	-2.0	20
CCCCNC(=O)CSc1nc2ccccc2c(=O)n1CC1COc2ccccc2O1 (stereo unspecified)	-1	-2	2.8	.	0.6	-8
COC(=O)c1cnn2c(C)c(Cc3c(C)cc(C)cc3C)c(C)nc12	-28	.	1.4	1.3%	.	.
COc1cccc(-c2cnc(C(O)c3ccc(-c4ccccc4)cc3)[nH]2)c1 (stereo unspecified)	.	-23	-0.9	13%	-2.4	-19
CCc1ccc(CCC(=O)Nc2ccc(C(C)=O)cc2)o1	-12	-9	0.4	0.5%	-1.5	-7
Nc1nc2c([N+](=O)[O-])cccc2s1	-9	9	2.8	-1.4%	1.2	.
CC(=O)OCCN1c2ccccc2Sc2cnccc21	7	-1	0.1	-1.2%	-5.9	-7
Cc1ccc2cc(CN(Cc3ccco3)S(=O)(=O)c3c(C)ccc4nsnc34)c(=O)[nH]c2c1	-25	-11	0.7	1.3%[38.3 µM]	-2.2	-7
CCOC(=O)Cn1c(=O)oc2cc(S(=O)(=O)N3CCc4ccccc43)ccc21	13	0	-0.6	1.9%	-3.7	1
CC1(C)Cc2c(C#N)c(N3CCN(C(=O)c4ccccc4Cl)CC3)nc(-c3ccco3)c2CS1	71	-14	0.4	1.1%	-3.5	10
COC(=O)CSc1nnc(-c2cccs2)n1-c1ccc(Cl)cc1	15	-1	4.0	0.2%	-2.2	-8
Cc1ccc(C)c(N2CCN(CCCNC(=O)c3cnn(-c4ccccc4)c3C3CCN(C(=O)OC(C)(C)C)CC3)CC2)c1	35	.	1.1	-1.6%	.	.
Cc1cc(C)nc(SCc2nnc(SCC(=O)N3CCOCC3)o2)n1	-2	21	-0.6	-1.4%	-2.1	0
C/C(=N\NC(=O)c1ccc(C)cc1C)c1ccc2c(c1)OCO2	18	2	1.2	5.5%	-1.2	-21
CC(C(N)=O)N1C(=O)C2C3C=CC(C3)C2C1=O (stereo unspecified)	33	1	-0.8	?	-3.2	4
COc1cc(CCN2C(=O)c3cccc4cccc(c34)C2=O)c(S(=O)(=O)NCCO)cc1OC	4	-1	0.0	-1.6%	-0.2	4
CN(Cc1ccccc1)C1CCN(Cc2ccccc2[N+](=O)[O-])CC1	6	-7	-0.3	-0.3%	4.8	-13
CC(=O)OCC1=C(C(=O)O)N2C(=O)C(NC(=O)C(C)Cn3nc(C)c(Cl)c3C)C2SC1 (stereo unspecified)	-1	-10	2.3	-0.7%	-6.5	8
CCN(CC)S(=O)(=O)c1ccc(-c2csc(=Nc3cccc(C(F)(F)F)c3)n2Cc2ccc3c(c2)OCO3)cc1	7	.	2.0	1.9%	.	.
O=C(Cc1csc(-c2ccccc2)n1)NCC(=O)Nc1ccc(F)c(F)c1F	-3	1	-0.8	0.6%	-4.8	-2
Cc1cc(C)cc(NC(=O)CSc2oc(-c3ccccc3)nc2S(=O)(=O)c2ccc(Cl)cc2)c1	-15	.	0.8	-0.8%	.	.
CC(=O)Nc1cccc(NC(=O)C(F)(F)F)c1	-10	10	-0.4	-2.7%	-1.1	2
COc1ccc(OCc2ccc(C(=O)N3CCOCC3)cc2)cc1	2	1	0.6	4.8%[38.3 µM]	1.3	0
COc1cc(C(C)=O)ccc1OCC(O)Cn1nc(C)c(C(C)=O)c1C (stereo unspecified)	-3	0	0.3	0.9%	2.9	-8
Cc1csc2nc(-c3cccc(NC(=O)C(C)C)c3)cn12	?	.	-0.1	1.6%	.	.
O=C(NCc1cccc(F)c1)C1CCC(=O)N(CCc2cccc(F)c2)C1 (stereo unspecified)	-15	1	0.3	-0.4%	-3.8	-4
Cc1cccc(N2CCN(C(=O)c3cnn(-c4ccc(F)cc4F)c3C3CCN(C(=O)OC(C)(C)C)CC3)CC2)c1C	-63*	.	93*	2.1%	.	.

In the list so far, 2 contain a tert-butyl group.
SMILES	TRPML1 blocker	Six1-Eya2 inh	TRPML1 ag	PINK1 modulator	D2 ag	CtBP-E1A inh
Cc1ccc(C)c(N2CCN(CCCNC(=O)c3cnn(-c4ccccc4)c3C3CCN(C(=O)OC(C)(C)C)CC3)CC2)c1	35	.	1.1	-1.6%	.	.
Cc1cccc(N2CCN(C(=O)c3cnn(-c4ccc(F)cc4F)c3C3CCN(C(=O)OC(C)(C)C)CC3)CC2)c1C	-63*	.	93*	2.1%	.	.
